# Ecoli growth: inhibitors of Escherichia coli growth; OD600, 23 h; active compounds read low; AID 1053175; actives 0.21% (n = 330,000); OD600 absorbance (test concentration not listed);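 active = OD600 absorbance below the run mean of sample wells minus 3.6 SD, in any replicate, cut at about 0.56 in these data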;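 note: stock transfer was 300 nL into about 60 µL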
# rRNA inh HTS: inhibits bacterial ribosomal RNA function over humanized ribosomes | E. coli WT GFP vs humanized-ribosome RFP mutants, fluorescence, 24 h; active compounds read low; DMSO median 0, no signal -100 | GFP signal change (wild-type ribosome), % (no concentration beside the values) | actives 1.6% (n = 350,000);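 active = significant combined selectivity score with lowered wild-type GFP, culture density cut under 30%, mutant RFP and density less affected; inactive = any of these conditions unmet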; note: one replicate is shown; some compounds called inactive have numbers as strong as hits
# FGF22 binding: binders of recombinant human FGF22 by thermal shift. Q9HCT0. SYPRO orange fluorescence; percent of sucrose octasulfate shift, DMSO zero. calls only at 9.99 µM. actives 1.5% (n = 340,000);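 active = melting point raised past a set limit in the mean and every replicate; inconclusive = no clear call; three in four hits are not shown here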
# Target sequence (Q9HCT0 whole entry, looked up): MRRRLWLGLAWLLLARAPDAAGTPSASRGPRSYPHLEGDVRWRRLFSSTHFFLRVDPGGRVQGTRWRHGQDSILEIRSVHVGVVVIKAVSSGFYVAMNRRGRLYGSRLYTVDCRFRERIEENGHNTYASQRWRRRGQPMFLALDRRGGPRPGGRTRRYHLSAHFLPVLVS
# HNF4A DNA FP: change in binding of human HNF4 alpha to DNA; HNF4a-FITC DNA binding, fluorescence polarization, 1 h; activity change, % at 10 µM; AID 1224865; P41235; actives 0.3% (n = 360,000); in the data active = activity change above about 30%, passing the limit was not always enough;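 note: controls were the assay level and a saturating level of protein; the project sought stronger binding though the title names inhibitors; some compounds called inactive have numbers as strong as hits; positive values seem to mean higher polarization but the record does not say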
# MLL AF4-AF9 inh: MLL-AF4/AF9 protein interaction inhibition; P42568; AlphaScreen, biotin-AF4 peptide binding to FLAG-AF9; inhibition, % at 10 µM; actives 0.47% (n = 350,000);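 active = every replicate reaching a set inhibition limit, whatever the replicate mean, cut at about 25% in these data; inconclusive = mean inhibition reaches that limit but some replicates miss it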;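 note: 0% = plate neutral control median and 100% = total signal loss; the record names both 10 and 1 µM as test concentration; the first replicate is given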
# Target sequence (P42568 whole entry, looked up): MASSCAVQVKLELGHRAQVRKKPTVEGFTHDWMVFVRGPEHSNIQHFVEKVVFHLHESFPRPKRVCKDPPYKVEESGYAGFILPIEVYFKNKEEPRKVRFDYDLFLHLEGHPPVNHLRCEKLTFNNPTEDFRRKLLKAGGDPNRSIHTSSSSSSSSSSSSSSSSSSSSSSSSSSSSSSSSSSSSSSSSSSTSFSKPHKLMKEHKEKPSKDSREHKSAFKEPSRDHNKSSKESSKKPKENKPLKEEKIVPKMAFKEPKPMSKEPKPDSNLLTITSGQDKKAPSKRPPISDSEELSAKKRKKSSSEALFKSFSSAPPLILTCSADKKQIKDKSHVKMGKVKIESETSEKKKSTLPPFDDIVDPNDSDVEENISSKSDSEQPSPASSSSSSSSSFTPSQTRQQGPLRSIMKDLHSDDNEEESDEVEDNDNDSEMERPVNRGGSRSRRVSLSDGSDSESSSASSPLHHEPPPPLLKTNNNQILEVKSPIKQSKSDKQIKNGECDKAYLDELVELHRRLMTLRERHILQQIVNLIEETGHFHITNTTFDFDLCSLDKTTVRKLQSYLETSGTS
# Vif A3G: inhibitors of Vif binding to APOBEC3G peptide, primary screen, biochemical, TR-FRET, GST-Vif 1-94, biotin-A3G peptide, dose response retest (AID 1117319); one-dose inhibition, %; IC50 in µM for titrated hits; actives 0.57% (n = 260,000); TR-FRET GST-Vif / biotin-A3G peptide binding; higher % means a stronger effect; test concentration not given here; strong numbers were not always called active;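 active = above the screen mean plus three standard deviations and confirmed in dose response; inconclusive = results disagree or hit not tested in dose response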;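 note: Vif residues 1-94 fused to GST binding biotinylated APOBEC3G peptide 110-148; 0% = full assay without inhibitor and 100% = GST in place of GST-Vif; retest series ran down from 100 µM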
# ALR H2O2 inh: inhibitors of human sulfhydryl oxidase ALR. inhibition, % (no concentration beside the values). actives 3.8% (n = 290,000). P55789. AID 485317. purified ALR, DTT oxidation, H2O2 HRP-luminol luminescence;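 active = mean and each replicate at 75% or more; inconclusive = only one of the two met; inactive = neither met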;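 note: stock transfer was 7.5 nL into about 7.5 µL; 0% = neutral wells and 100% = wells with inactivated enzyme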
# Target sequence (P55789 whole entry, looked up): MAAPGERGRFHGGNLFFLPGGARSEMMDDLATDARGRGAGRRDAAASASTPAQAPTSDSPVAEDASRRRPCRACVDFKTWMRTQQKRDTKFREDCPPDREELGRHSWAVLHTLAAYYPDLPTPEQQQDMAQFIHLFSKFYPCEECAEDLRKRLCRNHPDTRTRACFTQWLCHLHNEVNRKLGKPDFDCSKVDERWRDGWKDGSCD
# rRNA inh HTS OD600: recorded beside rRNA inh HTS, whose call it bears; OD600 change, %; measured here: OD600 growth;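 optical density of the mix in the first replicate; 0 = DMSO median and -100 = no signal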
# rRNA inh HTS RFP: recorded beside rRNA inh HTS, whose call it bears; RFP signal change, %; measured here: RFP humanized mutant strains;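 first replicate; 0 = DMSO median and -100 = no signal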
# Starred values were filed as active, the others as inactive; i = inactive; ? = inconclusive; . = not tested or not shown; + = active, no number; & = joins results of further samples.
SMILES,Ecoli growth,rRNA inh HTS,rRNA inh HTS OD600,rRNA inh HTS RFP,FGF22 binding,HNF4A DNA FP,MLL AF4-AF9 inh,Vif A3G,ALR H2O2 inh
C=CCOc1c(CNC2CCCC2)cc(Cl)cc1OC,0.711,7.3,-3.0,-8.3,i,0.9,0.2,13.9%,.
O=C(O)c1cc(S(=O)(=O)O)cc(Nc2c3ccccc3nc3ccccc23)c1O,0.662,3.1,-10.8,-1.1,i,-1.5,-3.1,5.4%,31.0
N#CCSc1n[nH]c2nc3c(c(=O)n12)C1(CCCC1)Cc1ccccc1-3,0.739,.,.,.,.,2.6,.,-3.7%,5.0
CCCNC(=O)N1CC2(CN(C(=O)C3CCOCC3)C2)c2c([nH]c3cc(OC)ccc23)[C@@H]1CO,.,4.4,11.4,-0.5,i,.,1.6,.,.
O=C(NCc1cc(C(F)(F)F)cc(C(F)(F)F)c1)c1cc(-c2cc(F)ccc2OCC2CCCO2)n[nH]1 (centres undefined),.,3.8,-16.6,0.8,i,-0.1,0.5,.,.
CC(=O)Nc1nnc([N+](=O)[O-])s1,.,-10.3,4.0,-1.0,i,4.4,-0.8,-5.0%,.
O=C(CN1CCN(S(=O)(=O)N2CCCCCC2)CC1)Nc1ccc(F)cc1,0.699,-4.2,-1.8,0.7,i,-1.6,3.6,.,-1.3
O=S(=O)(N/N=C\c1ccccc1O)c1ccc(Cl)cc1,.,-6.7,-18.9,-2.6,i,2.4,-0.2,.,30.5
COc1ccccc1-n1c(SCC(=O)O)nc2sc3c(c2c1=O)CCC3,0.678,8.5,11.2,1.1,.,0.4,-9.6,14.4%,.
O=C(C[C@H]1C=C[C@H](NC(=O)Nc2ccc3c(c2)OCO3)[C@@H](CO)O1)NCc1ccc(F)cc1,.,-3.7,-0.9,-0.7,i,.,-1.5,.,.
CN1C(=O)c2cc(NC(=O)C3CC3)ccc2OC[C@H]2O[C@@H](CC(=O)Nc3ccccc3F)CC[C@@H]21,.,-2.2,5.2,-3.2,i,.,-1.4,.,.
O=C(O)C(C/C(=N/O)c1ccc(Br)cc1)P(=O)(c1ccccc1)c1ccccc1 (centres undefined),.,0.6,-0.1,-2.3,i,0.4,-9.0,-5.1%,-1.4
COc1ccccc1CNC(=O)CN(C)S(=O)(=O)c1cccc2cccnc12,0.67,-43.5,-54.2,-18.1,i,-4.4,.,19.5%,.
COC(=O)C[C@@H]1C[C@H]2c3cc(N(C)C)ccc3O[C@H]2[C@@H](CO)O1,.,5.2,6.3,-0.4,i,.,-6.2,.,.
COc1ccc(NC(=O)CCN2CCN(S(=O)(=O)c3cc(Cl)ccc3Cl)CC2)cc1,0.673,.,.,.,.,-1.4,.,4.1%,-6.6
FC(F)(F)c1cc(Cl)c2nc(-c3ccco3)c(Cc3ccccc3C(F)(F)F)n2c1,.,2.6,-3.3,2.7,i,13.5,-2.2,.,.
CCc1ccc2[nH]c(=O)c(CN(Cc3ccc(F)cc3)C(c3nnnn3CCN3CCOCC3)C(C)C)cc2c1 (centres undefined),0.709,.,.,.,.,3.5,.,8.2%,-5.1
COc1ccc(CN(C)C[C@@H]2OCCCC[C@@H](C)Oc3ccc(NC(=O)CCCN(C)C)cc3C(=O)N([C@@H](C)CO)C[C@@H]2C)cc1,.,3.7,12.1,1.0,i,.,1.5,.,.
O=C(NCc1n[nH]c(=S)n1-c1cccc(Cl)c1)c1cccs1,0.683,-0.7,-8.2,0.5,.,0.4,-25.4,-3.6%,19.7
C[C@@H]1CN([C@H](C)CO)C(=O)c2cc(NC(=O)CCN3CCOCC3)ccc2O[C@H]1CN(C)Cc1ccc(C(=O)O)cc1,.,5.5,1.1,0.6,i,.,-1.1,.,.

# In the list so far, these contain fluorine:
SMILES,Ecoli growth,rRNA inh HTS,rRNA inh HTS OD600,rRNA inh HTS RFP,FGF22 binding,HNF4A DNA FP,MLL AF4-AF9 inh,Vif A3G,ALR H2O2 inh
O=C(NCc1cc(C(F)(F)F)cc(C(F)(F)F)c1)c1cc(-c2cc(F)ccc2OCC2CCCO2)n[nH]1 (centres undefined),.,3.8,-16.6,0.8,i,-0.1,0.5,.,.
O=C(CN1CCN(S(=O)(=O)N2CCCCCC2)CC1)Nc1ccc(F)cc1,0.699,-4.2,-1.8,0.7,i,-1.6,3.6,.,-1.3
O=C(C[C@H]1C=C[C@H](NC(=O)Nc2ccc3c(c2)OCO3)[C@@H](CO)O1)NCc1ccc(F)cc1,.,-3.7,-0.9,-0.7,i,.,-1.5,.,.
CN1C(=O)c2cc(NC(=O)C3CC3)ccc2OC[C@H]2O[C@@H](CC(=O)Nc3ccccc3F)CC[C@@H]21,.,-2.2,5.2,-3.2,i,.,-1.4,.,.
FC(F)(F)c1cc(Cl)c2nc(-c3ccco3)c(Cc3ccccc3C(F)(F)F)n2c1,.,2.6,-3.3,2.7,i,13.5,-2.2,.,.
CCc1ccc2[nH]c(=O)c(CN(Cc3ccc(F)cc3)C(c3nnnn3CCN3CCOCC3)C(C)C)cc2c1 (centres undefined),0.709,.,.,.,.,3.5,.,8.2%,-5.1

# Three entries out of the list above, sorted by the number in Ecoli growth, falling:
compound	Ecoli growth
CCc1ccc2[nH]c(=O)c(CN(Cc3ccc(F)cc3)C(c3nnnn3CCN3CCOCC3)C(C)C)cc2c1 (centres undefined)	0.709
O=C(NCc1n[nH]c(=S)n1-c1cccc(Cl)c1)c1cccs1	0.683
COc1ccc(NC(=O)CCN2CCN(S(=O)(=O)c3cc(Cl)ccc3Cl)CC2)cc1	0.673

# More results follow:
SMILES,Ecoli growth,rRNA inh HTS,rRNA inh HTS OD600,rRNA inh HTS RFP,FGF22 binding,HNF4A DNA FP,MLL AF4-AF9 inh,Vif A3G,ALR H2O2 inh
Cc1ccc(S(=O)(=O)NC(CN2CCOCC2)=NCCNS(=O)(=O)c2ccccc2)cc1,0.675,.,.,.,.,2.1,.,8.9%&-8.4%,5.8
CC(=O)N1[C@@H](CO)[C@@H](c2ccccc2)C12CN(C(=O)c1ccccn1)C2,.,2.6,6.5,-4.8,+,.,-11.9,.,.
COc1cc(/C=C/c2cccc[n+]2C)ccc1OCC(=O)Nc1ccccc1,0.699,3.1,8.2,-1.6,i,1.1,4.1,.,-0.6
COc1cccc(CNCCO)c1OCc1ccc(Cl)cc1,0.664,14.4,5.9,-1.3,i,4.6,1.3,.,.
CC(=O)OCC1=C(C(=O)O)N2C(=O)C(NC(=O)c3ccc(COc4c(C)cccc4Cl)o3)C2SC1 (centres undefined),0.664,3.0,-4.7,1.2,i,-10.0,-6.2,20.8%,97.6*
O=C(CN(c1ccccc1F)S(=O)(=O)c1ccccc1)NC1CCCCCC1,0.739,.,.,.,i,4.3,1.5,0.9%,5.2
CCCCCCCCN1C(=O)[C@@H](CC(=O)NCCCOC)C[C@@]2(C(=O)OC)C1=C[C@H](C(C)(C)C)O[C@@H]2C,.,3.2,-7.1,0.3,i,.,-9.3,.,.
O=C(CSc1nncs1)NCc1ccc2c(c1)OCO2,0.711,.,.,.,.,1.0,.,.,-19.6
N#CC1=C(N)C2=CCCC[C@H]2[C@H](c2ccccc2)C1(C#N)C#N,0.707,.,.,.,.,-7.0,.,.,-2.8
C[C@H]1CN([C@@H](C)CO)C(=O)Cc2cc(NS(=O)(=O)c3ccccc3)ccc2O[C@@H]1CN(C)CC1CC1,.,3.7,1.4,0.9,i,.,-0.5,.,.
Cc1nc2c(OCCN3C(=O)c4ccccc4C3=O)cccn2c1N(C)C(=O)CCC1CCCC1,.,.,.,.,i,-1.6,-0.6,.,.
Cc1cc(SCC(=O)Nc2ccccc2)n2ncc(-c3ccccc3)c2n1,0.691,9.5,4.2,3.1,i,5.4,2.2,0.4%,-2.1
Cc1ccc(OCC(=O)N/N=C\c2cn(C)c3ccccc23)c([N+](=O)[O-])c1,.,.,.,.,.,-0.1,.,-1.2%,5.3
COCC(=O)Nc1ccc(C)c(Cl)c1,0.697,.,.,.,.,1.1,.,?,.
O=C(Nc1ccc([N+](=O)[O-])cc1)c1ccc(Cn2cc([N+](=O)[O-])cn2)cc1,.,0.1,9.1,0.4,i,-2.6,-6.3,.,2.3
CO[C@@H]1CN(C)C(=O)c2cc(NC(=O)C3CC3)ccc2OC[C@@H](C)N(Cc2ccncc2)C[C@H]1C,.,-2.3,-4.2,0.9,i,.,0.4,.,.
O=c1nc2ccccc2c2n1CC(CN1CCN(c3ccc(F)cc3)CC1)N2 (centres undefined),.,.,.,.,.,-1.3,.,3.9%,21.0
CCOc1ccccc1NC(=O)C1CCN(c2ccc(S(=O)(=O)N3CCCC3)cc2)CC1,0.695,10.3,11.1,-7.6,i,1.9,4.3,2.7%&-5.1%,.
COC(=O)c1cc2ccsc2n1Cc1cc(=O)n2ccccc2n1,0.703,-10.3,-12.2,1.3,i,2.2,-0.6,-2.0%,-0.3
c1ccc(Cn2nnnc2C(c2ccccn2)N2CCOCC2)cc1 (centres undefined),0.591,.,.,.,.,-0.7,.,0.6%,-16.9
C[C@H](CO)N1C[C@H](C)[C@H](CN(C)CC2CCCCC2)Oc2c(NC(=O)c3nc4ccccc4s3)cccc2C1=O,.,-4.9,5.4,-1.2,i,.,20.5,.,.
CCN(CC(=O)Nc1ccccc1OC)CC(=O)Nc1ccccc1-c1ccccc1,0.719,-32.0*,-18.4*,0.2*,i,1.6,0.3,-1.9%,1.4
CN(C(=O)CSc1nc(-c2ccccc2)cn1N)C(c1ccccc1)c1ccccc1,0.749,-8.2,-42.2,-1.9,.,-5.3,.,0.0%,-1.0
COc1cccc(CN2C(=O)Nc3ccccc3C(=O)N2C(C)(C)C)c1,0.634,.,.,.,.,-1.6,.,?,2.9
O=S(=O)(c1ccc(F)cc1)c1nc(-c2ccco2)oc1NCCCn1ccnc1,.,-19.5,-37.0,-9.2,i,-3.5,2.3,0.9%,.
O=C(CNS(=O)(=O)c1c(Cl)cccc1Cl)OCC(=O)N1CCN(c2ccccc2)CC1,0.616,.,.,.,.,0.0,.,-4.5%,19.6
O=C(NCCn1cc(SCc2ccccc2)c2ccccc21)c1c(F)cccc1F,0.78,3.5,-5.2,1.2,i,-1.4,5.6,-14.0%,6.3
Cc1ccn2c(=O)nc(SCC(=O)c3ccc(Cl)cc3)nc2c1,0.671,0.4,1.9,-0.6,i,-0.3,-16.7,-1.8%,92.6*
CC(=O)Nc1ccc(S(=O)(=O)NCCOc2ccc(Cl)cc2C)cc1,0.682,-12.8,-18.1,-2.8,i,-1.9,0.1,0.1%,-3.5
O=C(NCc1ccco1)c1nn2c(C(F)(F)F)cc(-c3cccs3)nc2c1Br,0.72,.,.,.,.,1.0,.,12.9%&17.8%,27.7
CC(C)N(C)Cc1nnnn1CC(=O)NCCc1cccc(C(F)(F)F)c1,0.7,10.9,7.5,4.3,i,-0.7,-1.8,.,.
Cc1ccccc1-c1cnc2c(c1)C(=O)N([C@H](C)CO)C[C@@H](C)[C@H](CN(C)C(=O)c1cccnc1)O2,.,2.6,12.8,-2.1,i,.,-1.9,.,.
C[C@H](CO)N1C[C@H](C)[C@@H](CN(C)C)Oc2ccc(NC(=O)CCCCCC(=O)Nc3ccccc3N)cc2C1=O,.,5.4,-2.7,-0.9,i,.,1.9,.,.
CCNC(=S)Nc1ccc2c(c1)c(=O)n(C)n2Cc1cccc(C(F)(F)F)c1,.,3.5,4.5,-1.7,i,2.0,-0.6,.,.
CCCCCCCN=C(C)c1ccccc1O,0.708,7.3,10.5,-0.3,i,7.5,-0.7,.,-17.6
COc1ccc(NC(=O)N2C[C@H](O)COC[C@H]3O[C@H](CC(=O)N4CCOCC4)CC[C@@H]32)cc1,.,-1.0,1.7,2.1,i,.,-1.0,.,.

# Source: PubChem BioAssay (several laboratories)

# These rows are one share of the data. The share of hits here may be higher or lower than overall.
